AID504770: growth inhibitors of E. coli YBA685 in a screen for V. cholerae RctB (chromosome II replication) inhibitors; E. coli YBA685 rctB-dependent plasmid, OD600 growth, 3 h; hits give low values; z-score (no concentration beside the values); hit rate 0.27% among 130,000;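 active = z-score under -2 on both plates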;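 also: wells of about 30 µL received 100 nL stock; score is relative to mean and SD of the test wells; the first replicate is given; strong numbers were not always called active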
Ba CapD inh: blocks the Bacillus anthracis CapD enzyme; purified CapD enzyme, fluorescence intensity read-out; hits give low values; some hits fall short of the stated cut; z-score (test concentration not listed); AID 492967; hit rate 0.23% among 140,000;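 active = z-score under -4 in either of two replicates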;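 also: stock transfer was 100 nL into about 40 µL; score is relative to mean and spread of the plate; one replicate is shown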
Starred values were filed as active, the others as inactive; . = not tested or not shown.

SMILES	AID504770	Ba CapD inh
Cc1ccc(N=Cc2nc(-c3ccc([N+](=O)[O-])cc3)oc2O)c(Br)c1	.	0.49
O=C1OCC(c2cccs2)=C1c1cccs1	-0.4	.
COc1ccc(OC)c(-n2c(=S)[nH]c3cc(C(=O)N4CCN(c5ccccc5)CC4)ccc3c2=O)c1	.	-0.54
O=c1/c(=C/c2ccc(-c3ccc(Cl)c([N+](=O)[O-])c3)o2)sc2nc3ccccc3n12	.	0.2
Cc1nc(Cc2nnc(SCC(=O)NC(C)(C)C)o2)cs1	-0.35	.
CC(=O)Nc1ccc(S(=O)(=O)NC2CC3CCC(C2)N3C)cc1 (stereo not drawn)	0.1	0.15
COc1ccc(-c2cc(C(F)(F)F)n3nc(C(=O)NC(C)(C)C)c(Cl)c3n2)cc1OC	.	0.37
O=C1Nc2ccccc2Oc2ncccc21	0.05	0.44
O=C(/C=C/c1cccs1)C(C(=O)c1ccccc1)=C1SCCCCS1	0.3	-2.2
Cc1cc(/C=C2\C(=O)NC(=O)N(c3ccccc3F)C2=O)c(C)n1-c1cc(C(=O)O)cc(C(=O)O)c1	.	-2.5
Cc1cc(NC(=O)c2ccccc2)n(-c2nc3ccccc3[nH]2)n1	0.2	.
Cc1noc(C)c1Cc1ccc(C(=O)O)o1	-0.45	.
S=C(NCC1CCCO1)N/N=C1\C2CN3CCN(C2)CC1(Cc1ccccc1)C3 (stereo not drawn)	-0.55	-0.58
O=C(CCc1ccccc1)c1ccc2c(c1)OCCCO2	0.95	0.075
CCCCOc1ccc(C2N(c3ccc(C)cc3)CCN2c2ccc(C)cc2)cc1	.	-0.33

Entries listed so far with a thiophene ring, fused or not, in the order listed:
SMILES	AID504770	Ba CapD inh
O=C1OCC(c2cccs2)=C1c1cccs1	-0.4	.
O=C(/C=C/c1cccs1)C(C(=O)c1ccccc1)=C1SCCCCS1	0.3	-2.2

(next part)
SMILES	AID504770	Ba CapD inh
CC1CCN(S(=O)(=O)c2ccc(S(=O)(=O)NCc3ccccc3)cc2)CC1	-0.8	.
COc1cccc(CNCCc2c[nH]c3ccccc23)c1	-0.4	3.5
CCCCc1cc(=O)oc2cc(OCC(=O)N(CC)CC)c(Cl)cc12	2	4
CCOc1ccc(OCC)c(NC(=O)CNS(=O)(=O)c2cccs2)c1	-0.5	-0.41
Cc1noc(C)c1S(=O)(=O)N(CC(=O)N(C)c1ccc(Br)cc1)c1ccc2c(c1)OCO2	0.45	-0.2
COc1ccc(N2C(=O)C3C(c4cccc(Cl)c4Cl)OC4(C(=O)c5ccccc5C4=O)C3C2=O)cc1 (stereo not drawn)	.	-0.11
O=C1C2C3C=CC(C3)C2C(=O)N1c1cccnc1 (stereo not drawn)	-0.2	-0.79
COc1cccc(NC(=O)CSc2nc3c(sc(=S)n3-c3ccccc3C)c3nc4ccccc4n23)c1	.	-0.44
Cc1c(Cl)cccc1NC(=O)NCc1cccnc1	-1.1	-0.025
COCCNC(=O)c1ccc2c(c1)ncn2-c1ccccc1OC	-1.2	0.5
CSc1nnc2c(n1)OC(c1ccco1)N(C(=O)c1ccccc1)c1ccccc1-2 (stereo not drawn)	2.2	-1
CCC(C)NC(=O)C1c2ccccc2C(=O)N(CCOC)C1c1cccs1 (stereo not drawn)	2.7	-2.1
CCc1ccc(Nc2ncnc3c2nc2n3CCCCC2)cc1	-1.2	1.1
Cc1cn(C2CC(OC(=O)C(C)C)C(CO)O2)c(=O)[nH]c1=O (stereo not drawn)	.	-0.21
Cc1[nH]n(-c2cccc(Cl)c2)c(=O)c1C=Nc1c(Cl)cc(Cl)cc1Cl	.	-0.15
O=C(C1CC(=O)N(c2ccccc2)C1)N1CCN(c2ccccc2F)CC1 (stereo not drawn)	-0.85	-0.055
Cc1nnc(NC(=O)CN2C(=O)c3ccccc3S2(=O)=O)s1	0.6	0.045
O=[n+]1cc(-c2cccc(C(F)(F)F)c2)n([O-])c2c1CCCC2	-0.4	0.47
COc1ccc(C2C(C#N)=C3N=C(N)c4ccccc4N3C3=C2C(=O)CC(C)(C)C3)cc1 (stereo not drawn)	1	-0.69
COCCn1c(SCC(=O)NCc2ccco2)nnc1-c1cccs1	1	.
Cc1ccc(NC(=O)CONS(=O)(=O)c2ccccc2)cc1C	1.3	.
COc1ccc(C(=O)n2nc3c(c2-c2ccc(OC)cc2)COC(C)(C)C3)cc1	-0.8	-0.7
COc1cc2c(c(OC)c1OC)CC(N)CCC2 (stereo not drawn)	-0.05	0.32
COC(=O)C1=C(C)NC(C)=C(C(=O)OC)C1c1ccc2ccccc2n1	.	2
O=C(CC1(C(=O)O)CCCC1)NC1CC1	0.35	.
CCCCN(CC)Cc1ccc(CNC(=O)Nc2ccc(OCC)cc2)o1	-0.2	-0.51
Cc1ccc(C)n1C(CC(=O)O)c1ccc2c(c1)OCO2 (stereo not drawn)	1.9	-0.46
N#CCCCOc1ccccc1	0.5	.
Cc1cccc(C2(c3cccc(C)c3)CC2C(=O)Nc2cccc(C(F)(F)F)c2)c1 (stereo not drawn)	.	-0.11
COc1ccc(CC(=O)Nc2ccc3c(C(F)(F)F)cc(=O)oc3c2)cc1OC	0.15	0.34
O=c1cc(-c2ccccc2)sc2ccc(Cl)cc12	-0.05	0.39
O=C(O)/C=C\C(=O)Nc1ccccc1Sc1nccc(C(F)(F)F)n1	1.4	0.23
O=C(NC1CCCCC1)C(c1ccncc1)N(CC1CCCO1)C(=O)C(F)(F)F (stereo not drawn)	-1.4	.
Oc1cc2c(cc1CN1CC=C(c3ccccc3)CC1)OCO2	-0.55	.
N#CC(C#N)=Cc1cccn1-c1ccc(C(F)(F)F)cc1	0	-0.43
O=[N+]([O-])c1cccc(S(=O)(=O)N(Cc2ccco2)CC2CCCO2)c1 (stereo not drawn)	.	-0.35
Cc1ccc(NC(=O)Cn2ccn(CCc3ccc(S(N)(=O)=O)cc3)c(=O)c2=O)cc1F	0.1	-1.5
Cc1ccc2c(C)nc(NC3=NC(C(=O)Nc4ccc(Cl)c(Cl)c4)CC(=O)N3)nc2c1 (stereo not drawn)	-0.15	0.16
CC(Oc1ccc(Cl)cc1Cl)C(=O)NN1C(=O)c2ccccc2C1=O (stereo not drawn)	-0.2	-0.16
CCC(=O)N=c1sc2ccccc2n1-c1ccccc1	-0.7	.
O=C(NN=C1CSc2sc(=S)sc2SC1)c1ccncc1	.	-0.35
COC(=O)c1ccc2c(=O)n(Cc3ccc(C(=O)NCCN4CCC(C)CC4)cc3)c(=S)[nH]c2c1	.	0.7
O=C(NCc1ccccc1)C1CCCN1C(=O)OCc1ccccc1 (stereo not drawn)	1	0.56
O=C(CCc1nc(-c2ccccc2)no1)N1CCOCC1	0.45	.
CCN1C(=O)C(NC(C)=O)c2cc(C)ccc21 (stereo not drawn)	0.9	0.24
O=C(/C=C/c1cccc2ccccc12)N1CCOCC1	-0.05	4.2
CC(C)(CC(=O)O)CC(=O)N1CCN(c2nc3cc(Cl)ccc3s2)CC1	-3.6	0.88
CC(C)C(OC(=O)c1cc2occc2n1C(C)C)C(=O)NCC1CCCO1 (stereo not drawn)	-0.8	.
CCCCCCC(=O)Nc1cccc(C(=O)N/N=C/c2cc(O)c(OC)c(OC)c2)c1	.	2.5
O=S1(=O)CCC(n2nnnc2-c2ccc(Cl)cc2)C1 (stereo not drawn)	-0.25	.
c1cncc(C2Nc3ccccc3-c3nc4ccccc4n32)c1 (stereo not drawn)	-0.6	.
COc1cccc(-c2noc(-c3cc4ccccc4oc3=O)n2)c1	-0.5	1.4
COc1ccc(C(=O)NN=C2CCCC2)cc1	-0.65	.
Cn1c(=NC(=O)CN2C(=O)CCC2=O)sc2cccc(F)c21	-0.15	.
CC(=O)C1=NN(c2cccc(Cl)c2)C2(S1)c1ccccc1C(c1ccccc1)=NN2c1ccccc1 (stereo not drawn)	.	-0.27
COc1ccc(-c2[nH]nc3c2C(c2cc(OC)c(O)c(OC)c2)C(C#N)=C(N)O3)cc1 (stereo not drawn)	.	-0.26
Nc1ccc2nc(CCC(=O)O)[nH]c2c1	-0.55	29
Cc1cc(N2CCN(C(=O)OC(C)(C)C)CC2)nc(C(C)C)n1	-0.1	.
CCSCc1cc(=O)[nH]c(-c2ccc(C(F)(F)F)cc2)n1	-0.6	0.33
CC(C)(C)c1ccc2c(c1)N(CC(=O)N1CCOCC1)C(=O)CO2	-1	-0.26
(continued)
SMILES	AID504770	Ba CapD inh
CN(C)c1ccc(-c2n(C)c3ccccc3[n+]2C)cc1	0.55	0.29
COC(=O)c1ccc(COC(=O)c2cccs2)cc1	0.9	-0.81
Cc1ccc(CSCc2ccc(C(=O)NCCc3ccccc3)o2)cc1	-0.2	-0.34
C=CCN1C(=O)C2Cc3c([nH]c4ccccc34)C(C)N2C1=S (stereo not drawn)	0.35	0.75
COc1ccccc1/C=C1\SC(=S)N(CCC(=O)Nc2sc3c(c2C(N)=O)CCCC3)C1=O	.	0.51
CCn1c(SCC(=O)Nc2sccc2C(N)=O)nnc1-c1ccco1	-0.4	.
Cc1cc(=O)n2[nH]c(-c3ccccc3)nc2n1	.	-0.39
COc1cccc(-c2nc(-c3cc(OC)ccc3OC)[nH]c2-c2cccc(OC)c2)c1	.	24
O=C1CS(=O)(=O)C(c2cccnc2)N1c1ccccc1 (stereo not drawn)	0.2	0.45
C/C(=N\NC(N)=O)C1CCCCC1	-1.2	.
Cc1ccc(-n2[nH]c(C)c(C=Nc3cc([N+](=O)[O-])ccc3Cl)c2=O)cc1	.	-0.02
O=C(NC1CC1)C1CSC(c2cccs2)=N1 (stereo not drawn)	-0.3	.
O=c1nc(N2CCOCC2)ccn1Cc1ccc(Br)cc1	0.05	0.42
O=C(CCC(=O)N1CC2CCCN2c2ccccc21)NCc1ccco1 (stereo not drawn)	0.1	-1.4
O=C(CC1OCCN(Cc2ccccc2)C1=O)Nc1ccc(F)cc1 (stereo not drawn)	-0.6	0.65
Cc1nc2cc(C(=O)NCc3ccccn3)ccc2n1-c1cccc(F)c1	-1.4	-0.18
O=C(OCC1CC2C=CC1C2)c1cc2ccccc2oc1=O (stereo not drawn)	0.25	0.81
CS(=O)(=O)N1Cc2ccccc2CC1C(=O)OCC(=O)c1ccc[nH]1 (stereo not drawn)	-0.25	.
O=C(O)c1coc2c(F)c(F)c(F)cc2c1=O	-1.4	-2.4
O=C(c1cccc(N2C(=O)C3C4C=CC(C4)C3C2=O)c1)N1CCN(Cc2ccccc2)CC1 (stereo not drawn)	.	0.11
CCOC(=O)COn1c(=O)c(C)[n+]([O-])c2ccccc21	.	1.6
COc1ccc(C2=CN3C(=O)CSC3=NN2)cc1	-0.15	-0.72
CCC(C)=C(C(=O)OC)C(=O)OC	1.5	-0.25
CC(=O)NCc1ccco1	0.05	.
O=C(Nc1ccc(F)cc1F)c1ccc2c(c1)C(=O)N(Cc1ccco1)C2=O	1.4	-0.54
CSc1n[nH]c(-c2ccco2)c1C#N	-0.05	-0.54
CCCCC(=O)n1c(=O)oc2ccc(C(C)(C)C)cc21	-1.1	0.02
Cc1ccc(S(=O)(=O)N2CCCCC2)cc1C(=O)c1nccn1C	0.75	.
Cc1cc(C)c(Cn2c(S(=O)(=O)Cc3ccccc3)nc3ccccc32)c(C)c1	0.05	0.04
CC1CCCCC1NC(=O)c1ccc(CS(=O)(=O)Cc2ccc(Cl)cc2)o1 (stereo not drawn)	-0.45	-0.76
Cc1cccc2sc(NC(=O)CN(C)S(=O)(=O)c3cccs3)nc12	1.9	-0.14
CC(=O)N1CCN(C(=O)Nc2c[nH]c3ccccc23)CC1	-1	.
CCOc1cc(C2C(C(=O)N3CCCCC3)=C(C)NC3=C2C(=O)CC(C)(C)C3)cc(Br)c1OCC (stereo not drawn)	.	16
CCOC(=O)c1ccc(-n2c(=S)sc3c2nc(SCC(=O)NCc2ccccc2)n2c4ccccc4nc32)cc1	.	-0.035
NC(=O)Cn1cc(C(=O)c2ccccc2)c2ccccc21	0.05	-3
O=C(COC(=O)c1ccco1)NC1CCCc2ccccc21 (stereo not drawn)	-0.75	.
Cc1ccc2nc3[nH]c4ccccc4c3nc2c1	.	2.2
Cc1cc(C(=O)N(C)C2CCCCC2)no1	1.2	0.21
CC(C)(C)C(=O)C[n+]1cccc(/C=N/O)c1	-0.7	27
O=C(CN1C(=O)CC(c2ccco2)Sc2ccccc21)c1ccccc1 (stereo not drawn)	-0.4	.

Rewritten with two lines to a compound: six of the compounds above.
Order of values – AID504770 | Ba CapD inh
- CC(=O)N1CCN(C(=O)Nc2c[nH]c3ccccc23)CC1
  -1 | .
- CCOc1cc(C2C(C(=O)N3CCCCC3)=C(C)NC3=C2C(=O)CC(C)(C)C3)cc(Br)c1OCC (stereo not drawn)
  . | 16
- CCOC(=O)c1ccc(-n2c(=S)sc3c2nc(SCC(=O)NCc2ccccc2)n2c4ccccc4nc32)cc1
  . | -0.035
- NC(=O)Cn1cc(C(=O)c2ccccc2)c2ccccc21
  0.05 | -3
- O=C(COC(=O)c1ccco1)NC1CCCc2ccccc21 (stereo not drawn)
  -0.75 | .
- Cc1ccc2nc3[nH]c4ccccc4c3nc2c1
  . | 2.2

For reference, seven of the compounds above:
SMILES	AID504770	Ba CapD inh
CCOC(=O)c1ccc(-n2c(=S)sc3c2nc(SCC(=O)NCc2ccccc2)n2c4ccccc4nc32)cc1	.	-0.035
NC(=O)Cn1cc(C(=O)c2ccccc2)c2ccccc21	0.05	-3
O=C(COC(=O)c1ccco1)NC1CCCc2ccccc21 (stereo not drawn)	-0.75	.
Cc1ccc2nc3[nH]c4ccccc4c3nc2c1	.	2.2
Cc1cc(C(=O)N(C)C2CCCCC2)no1	1.2	0.21
CC(C)(C)C(=O)C[n+]1cccc(/C=N/O)c1	-0.7	27
O=C(CN1C(=O)CC(c2ccco2)Sc2ccccc21)c1ccccc1 (stereo not drawn)	-0.4	.
